Screening results from PubChem BioAssay.
Ecoli rRNA inh: reduced GFP signal of wild-type E. coli, primary screen, bacterial rRNA inhibitor project, GFP/RFP fluorescence, OD600, single point; 350,000 tested, 1.6% active; E. coli WT GFP vs humanized-ribosome RFP mutants, 24 h; stronger effect = lower value; DMSO median 0, no signal -100; AID 720706, 2013; GFP signal change (wild-type ribosome), % (no concentration beside the values);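 active = significant combined selectivity score with lowered wild-type GFP, culture density cut under 30%, mutant RFP and density less affected; inactive = any of these conditions unmet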; also: one replicate is shown; some compounds called inactive have numbers as strong as hits
Ecoli rRNA inh OD600: further read-out of Ecoli rRNA inh, marked with its call; OD600 change, %; measured here: OD600 growth;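 optical density of the mix in the first replicate; 0 = DMSO median and -100 = no signal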
Ecoli rRNA inh RFP: second read-out of Ecoli rRNA inh, no call of its own (marks repeat the call); RFP signal change, %; measured here: RFP humanized mutant strains;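 first replicate; 0 = DMSO median and -100 = no signal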
* marks the source's active call; other numbers are inactive results.

#	Ecoli rRNA inh	Ecoli rRNA inh OD600	Ecoli rRNA inh RFP	Structure
1	-59	-77	-15	O=C(Nc1ccc(F)cc1)N1CCCCN2[C@@H](CO)[C@@H](c3ccc(-c4cccc(F)c4)cc3)[C@@H]2C1
2	0	-2	-3.2	C[C@@H]1CN([C@@H](C)CO)C(=O)c2c(c3ccccc3n2C)-c2ccccc2CO[C@@H]1CN(C)C(=O)c1ccncc1
3	1	2	-0.1	C[C@@H]1CN([C@@H](C)CO)C(=O)c2cccc(NC(=O)Nc3ccccc3)c2O[C@@H]1CN(C)Cc1ccc(C(=O)O)cc1
4	0	0	-0.4	COc1cccc(NC(=O)N[C@H]2C=C[C@@H](CC(=O)N3CCN(C)CC3)O[C@@H]2CO)c1
5	-1	6	-2.3	COc1ccc2c3c([nH]c2c1)[C@H](CO)N(C(=O)CC1CC1)CC31CCN(Cc2ccncc2)CC1
6	-2	-2	-1.1	C[C@@H]1CN([C@H](C)CO)C(=O)c2cccc(NS(C)(=O)=O)c2O[C@H]1CN(C)C(=O)Nc1cccc2ccccc12
7	0	-18	4.1	C(#CSCc1ccccc1)SCc1ccccc1
8	11	-1	3.0	CC(=O)Nc1cc(-c2ccc(N3CCN(C)CC3)cc2)cn2c(-c3cccc(C(C)=O)c3)cnc12
9	-2	-4	-0.4	COc1cccc(-c2cn(CC[C@@H]3CC[C@@H](NC(C)=O)[C@H](CO)O3)nn2)c1
10	-5	-6	3.9	CCCC(=O)Nc1ccc2c(c1)C(=O)N(C)C[C@@H](OC)[C@H](C)CN(CCc1ccccc1)[C@H](C)CO2
11	2	0	0.8	COc1ccc(NC(=O)N(C)C[C@H]2OCCCC[C@@H](C)Oc3ccc(NC(=O)CCCN(C)C)cc3C(=O)N([C@H](C)CO)C[C@H]2C)cc1
12	-2	8	-6.0	Nc1ccn([C@@H]2O[C@H](C(=O)Nc3ccc(Oc4ccccc4)nc3)[C@@H](O)[C@H]2O)c(=O)n1
13	5	11	0.6	COc1ccc(S(=O)(=O)Nc2ccc3c(c2)C(=O)N([C@@H](C)CO)C[C@@H](C)[C@@H](CN(C)C(=O)Nc2ccc(C(F)(F)F)cc2)OCCCC[C@@H](C)O3)cc1
14	2	-4	-1.3	C[C@H]1CN([C@@H](C)CO)C(=O)c2cc(NC(=O)c3ccncc3)ccc2O[C@@H]1CN(C)C(=O)Nc1ccc(C(F)(F)F)cc1
15	4	9	-1.4	CCCCOCC1CN(CCCC)S(=O)(=O)c2c(Oc3ccc(F)cc3)cccc2O1 (stereo unspecified)
16	2	1	-2.5	O=C(N[C@H]1CC[C@@H](CCNS(=O)(=O)c2ccc(Cl)cc2)O[C@@H]1CO)c1cnccn1
17	-3	-3	0.5	COc1ccc(CN(C)C[C@H]2Oc3ccc(NS(=O)(=O)c4c(C)noc4C)cc3CC(=O)N([C@@H](C)CO)C[C@H]2C)cc1
18	-3	4	0.0	C[C@@H]1CN([C@@H](C)CO)C(=O)c2cc(NC(=O)Cc3ccccc3)ccc2O[C@@H]1CN(C)C(=O)Nc1ccc(C(F)(F)F)cc1
19	0	7	-1.2	CNC[C@@H]1Oc2ccc(N(C)C)cc2C(=O)N([C@H](C)CO)C[C@@H]1C
20	-2	-1	0.5	CCCN1C[C@H](C)[C@@H](OC)CN(C)C(=O)c2cc(NS(=O)(=O)c3ccccc3)ccc2OC[C@H]1C
21	1	-36	28	COc1ccc(C#Cc2ccc([C@@H]3[C@@H](CO)N4CCCCN(S(=O)(=O)c5cn(C)cn5)C[C@@H]34)cc2)cc1
22	-1	0	-2.6	C[C@@H]1CCCCO[C@@H](CN(C)C(=O)Nc2cccc3ccccc23)[C@@H](C)CN([C@H](C)CO)C(=O)c2cc(NC(=O)Nc3ccc(F)cc3)ccc2O1
23	-4	-9	0.8	CN1C(=O)c2cc(NC(=O)Nc3ccc(F)cc3)ccc2OC[C@@H]2O[C@@H](CC(=O)NC3CCC3)CC[C@@H]21
24	1	5	-4.0	C[C@@H]1CN([C@@H](C)CO)C(=O)c2cccc(NC(=O)NC3CCCCC3)c2O[C@@H]1CN(C)S(=O)(=O)c1ccccc1
25	-1	0	-1.2	CCCN(C)C[C@H]1OCCCC[C@H](C)Oc2ccc(NS(=O)(=O)c3c(C)noc3C)cc2C(=O)N([C@@H](C)CO)C[C@H]1C

Carrying on.
#	Ecoli rRNA inh	Ecoli rRNA inh OD600	Ecoli rRNA inh RFP	Structure
26	-3	-4	-1.9	CC(C)NC(=O)Nc1ccc2c(c1)C(=O)N([C@H](C)CO)C[C@H](C)[C@@H](CN(C)Cc1ccncc1)OCCCC[C@H](C)O2
27	-3	-14	1.2	Cc1cc(C(=O)Nc2cccc3c2O[C@@H](CN(C)S(=O)(=O)c2ccc(Cl)cc2)[C@@H](C)CN([C@@H](C)CO)C3=O)n(C)n1
28	4	6	1.4	C[C@@H]1CN([C@H](C)CO)C(=O)Cc2cc(NC(=O)Nc3ccc(F)cc3)ccc2O[C@H]1CN(C)Cc1ccc(Cl)c(Cl)c1
29	-12	2	0.0	N#C[C@@H]1[C@H](c2ccccc2-c2ccccc2F)[C@H](CO)N1C(=O)C1CCC1
30	-25	-57	0.8	O=C(NC1CCCC1)N1CC(=O)N2[C@H](CO)[C@@H](c3ccc(-c4cccc(F)c4)cc3)[C@@H]2C1
31	-2	-16	4.4	COc1ccc(NC(=O)C2Cc3c(-c4cccc(NC(C)=O)c4)ccnc3O2)cn1 (stereo unspecified)
32	6	6	3.3	COc1ccc2c3c(n(C)c2c1)[C@H](CO)N(C(=O)Nc1cccc(F)c1)CC31CN(C)C1
33	-1	6	0.2	C[C@@H]1CCCCO[C@H](CN(C)Cc2ccc3c(c2)OCO3)[C@H](C)CN([C@@H](C)CO)C(=O)c2cc(NS(=O)(=O)c3cn(C)cn3)ccc2O1
34	1	5	-1.9	CO[C@H]1CN(C)C(=O)c2cc(NC(=O)Nc3ccccc3F)ccc2OC[C@H](C)N(C(C)=O)C[C@@H]1C
35	3	0	-0.9	C[C@H](CO)N1C[C@H](C)[C@H](CN(C)Cc2ccncc2)Oc2ccc(NS(=O)(=O)c3ccccc3)cc2C1=O
36	0	-4	0.7	C[C@H]1CN([C@@H](C)CO)C(=O)c2c(c3ccccc3n2C)-c2ccccc2CO[C@@H]1CN(C)S(=O)(=O)c1ccccc1
37	-4	-8	-3.8	O=C(Nc1ccccc1[N+](=O)[O-])OCC=Cc1ccccc1
38	2	-12	-8.2	COc1ccc(C(O)c2nc(-c3cccc(CO)c3)cs2)cc1 (stereo unspecified)
39	4	1	0.6	CCNC(=O)C[C@@H]1CC[C@H]2[C@H](COc3ccc(NC(=O)Nc4ccccc4C)cc3C(=O)N2C)O1
40	1	9	1.4	O=C([C@H]1[C@H](CO)[C@H]2Cn3c(cccc3=O)[C@H]2N1Cc1ccncc1)N1CCCCC1
41	0	18	-2.2	CC(C)Nc1nc(NCCN2CCNC2=O)c2sccc2n1
42	-1	-9	0.0	C[C@@H]1CN([C@@H](C)CO)C(=O)c2cccc(NS(=O)(=O)c3cn(C)cn3)c2O[C@H]1CN(C)S(=O)(=O)c1ccc(Cl)cc1
43	0	14	0.3	O=C1CCCCCC(=O)[C@H](O)C[C@H](c2ccccc2)O1
44	2	0	-1.6	Cc1ccc(S(=O)(=O)N(C)C[C@H]2Oc3c(NC(=O)c4nc5ccccc5s4)cccc3C(=O)N([C@H](C)CO)C[C@H]2C)cc1
45	-3	-1	-3.3	COc1ccc(NC(=O)Nc2ccc3c(c2)C(=O)N([C@@H](C)CO)C[C@@H](C)[C@H](CN(C)C(=O)Nc2ccc4c(c2)OCO4)OCCCC[C@@H](C)O3)cc1
46	7	5	-0.8	COc1c2c(c(OC)c3ccccc13)[C@@]1(OC2)O[C@H](CCO)C[C@H](O)[C@H]1O
47	2	12	-1.3	CCN1[C@@H]2c3ccc(-c4cccnc4)c(=O)n3C[C@H]1[C@H](CO)[C@H]2C(=O)NC1CCCCC1
48	-7	-40	-3.8	COc1ccccc1CNC(=O)c1cc(-c2ccc(F)cc2OC)n[nH]1
49	26	21	1.7	CC(CO)NS(=O)(=O)c1cccc(Cl)c1F (stereo unspecified)
50	5	-7	2.5	C[C@H]1CN([C@@H](C)CO)C(=O)Cc2cc(NC(=O)Nc3ccc(F)cc3)ccc2O[C@H]1CN(C)CC1CCCCC1

Sorted by count of non-hydrogen atoms (smallest number first): some entries from above.
#	Ecoli rRNA inh	Ecoli rRNA inh OD600	Ecoli rRNA inh RFP	Structure
49	26	21	1.7	CC(CO)NS(=O)(=O)c1cccc(Cl)c1F (stereo unspecified)
43	0	14	0.3	O=C1CCCCCC(=O)[C@H](O)C[C@H](c2ccccc2)O1
32	6	6	3.3	COc1ccc2c3c(n(C)c2c1)[C@H](CO)N(C(=O)Nc1cccc(F)c1)CC31CN(C)C1
39	4	1	0.6	CCNC(=O)C[C@@H]1CC[C@H]2[C@H](COc3ccc(NC(=O)Nc4ccccc4C)cc3C(=O)N2C)O1
27	-3	-14	1.2	Cc1cc(C(=O)Nc2cccc3c2O[C@@H](CN(C)S(=O)(=O)c2ccc(Cl)cc2)[C@@H](C)CN([C@@H](C)CO)C3=O)n(C)n1
28	4	6	1.4	C[C@@H]1CN([C@H](C)CO)C(=O)Cc2cc(NC(=O)Nc3ccc(F)cc3)ccc2O[C@H]1CN(C)Cc1ccc(Cl)c(Cl)c1

Next part
#	Ecoli rRNA inh	Ecoli rRNA inh OD600	Ecoli rRNA inh RFP	Structure
51	-2	10	-1.1	COc1ccc(CN(C)C[C@H]2Oc3c(NC(=O)C4CCCCC4)cccc3C(=O)N([C@@H](C)CO)C[C@@H]2C)cc1
52	4	6	-2.2	COc1cccc(-c2cnc3c(c2)C(=O)N([C@H](C)CO)C[C@@H](C)[C@H](CN(C)C(=O)CN(C)C)O3)c1
53	3	10	-0.5	C/C=C/c1ccc([C@@H]2[C@@H](CO)N3C(=O)CN(C(=O)NC4CCCC4)C[C@@H]23)cc1
54	-25*	-8.3*	7.0*	COc1ccc(C(=O)O)cc1S(=O)(=O)Nc1cc(C(F)(F)F)ccc1N1CCCCC1
55	3	0	-1.9	C[C@H]1CN([C@@H](C)CO)C(=O)c2cc(NC(=O)CCCN(C)C)ccc2O[C@H]1CN(C)S(=O)(=O)c1cccs1
56	2	5	1.4	COCCNC(=O)C[C@H]1CC[C@H](NC(=O)NC2CCCCC2)[C@H](CO)O1
57	6	-22	14	COc1ccc2c3c(n(C)c2c1)[C@H](CO)N(C(=O)C1CCCC1)CC31CCN(Cc2cccc(F)c2)CC1
58	1	-13	4.5	C[C@H]1CCCCO[C@@H](CN(C)Cc2ccc(C(F)(F)F)cc2)[C@@H](C)CN([C@@H](C)CO)C(=O)c2cc(NC(=O)CCC(F)(F)F)ccc2O1
59	-56	-73	-20	O=C(C[C@@H]1CC[C@H]2[C@@H](COC[C@H](O)CN2C(=O)Nc2ccc(Cl)c(Cl)c2)O1)NCc1ccccc1
60	-1	7	-1.4	COc1ccc(NC(=O)N(C)C[C@@H]2Oc3ccc(NC(=O)NC(C)C)cc3CC(=O)N([C@@H](C)CO)C[C@H]2C)cc1
61	6	5	2.2	Cc1noc(C)c1S(=O)(=O)N(C)C[C@H]1Oc2ccc(NC(=O)NC(C)C)cc2CC(=O)N([C@H](C)CO)C[C@H]1C
62	0	1	-1.8	Cn1cnc(S(=O)(=O)N[C@@H]2CC[C@H](CC(=O)N3CCN(c4ccccc4)CC3)O[C@H]2CO)c1
63	-1	-5	0.4	C[C@@H]1CN([C@H](C)CO)S(=O)(=O)c2ccc(C#CC3(O)CCCC3)cc2O[C@H]1CN(C)C(=O)Cc1cccnc1
64	6	16	0.2	CCNC(=O)C[C@H]1CC[C@@H](NC(=O)C2CC2)[C@H](CO)O1
65	-7	-30	24	COc1ccc(NC(=O)N2CCCCN3[C@H](CO)[C@H](c4ccc(C5=CCCCC5)cc4)[C@@H]3C2)cc1
66	-4	-3	-2.3	COc1ccc(-c2ccc3n(c2=O)C[C@H]2[C@H](CO)[C@@H](C(=O)Nc4ccccc4)[C@@H]3N2C)cc1
67	0	6	2.2	COc1cccc(NC(=O)N(C)C[C@@H]2Oc3ncc(C#Cc4ccc(F)cc4)cc3C(=O)N([C@H](C)CO)C[C@@H]2C)c1
68	-5	-8	0.6	C[C@@H]1CN([C@H](C)CO)C(=O)Cc2cc(NS(=O)(=O)c3cccs3)ccc2O[C@@H]1CN(C)Cc1ccc(Cl)c(Cl)c1
69	-5	-9	-3.8	O=C(C[C@H]1C[C@H]2c3cc(NC(=O)CC4CC4)ccc3O[C@H]2[C@@H](CO)O1)NCc1ccncc1
70	-4	-13	0.2	C[C@H](CO)N1C[C@H](C)[C@H](CN(C)Cc2ccncc2)OCCCC[C@H](C)Oc2ccc(NS(=O)(=O)c3ccc(F)cc3)cc2C1=O
71	2	0	0.1	CCC(=O)Nc1ccc2c(c1)OC[C@H](C)N(C(=O)CN(C)C)C[C@H](C)[C@H](OC)CN(C)C2=O
72	-2	8	-4.0	N#C[C@H]1[C@H](c2ccc(-c3ccccc3F)cc2)[C@@H](CO)N1C(=O)C1CCOCC1

Filtered by structure: those above with a thiophene ring, fused or not.
#	Ecoli rRNA inh	Ecoli rRNA inh OD600	Ecoli rRNA inh RFP	Structure
41	0	18	-2.2	CC(C)Nc1nc(NCCN2CCNC2=O)c2sccc2n1
55	3	0	-1.9	C[C@H]1CN([C@@H](C)CO)C(=O)c2cc(NC(=O)CCCN(C)C)ccc2O[C@H]1CN(C)S(=O)(=O)c1cccs1
68	-5	-8	0.6	C[C@@H]1CN([C@H](C)CO)C(=O)Cc2cc(NS(=O)(=O)c3cccs3)ccc2O[C@@H]1CN(C)Cc1ccc(Cl)c(Cl)c1

Some of the compounds tested, so the mix of outcomes need not match the whole.
